VDR inhibitor: inhibitors of human vitamin D receptor; VDR-SRC2-3 peptide fluorescence polarization, 2 h; Potency, µM, inactives show max response, negative = inhibition, most hits filed as inhibitors; actives 0.93% (n = 400,000); active = well fitted inhibition curve with a large enough effect; inconclusive = small, poorly fitted or top-dose-only effect, or another doubt; inactive = no such curve, though single readings can be large or run the other way; note: series mostly up to about 120 µM
Target sequence (P11473 whole entry, looked up): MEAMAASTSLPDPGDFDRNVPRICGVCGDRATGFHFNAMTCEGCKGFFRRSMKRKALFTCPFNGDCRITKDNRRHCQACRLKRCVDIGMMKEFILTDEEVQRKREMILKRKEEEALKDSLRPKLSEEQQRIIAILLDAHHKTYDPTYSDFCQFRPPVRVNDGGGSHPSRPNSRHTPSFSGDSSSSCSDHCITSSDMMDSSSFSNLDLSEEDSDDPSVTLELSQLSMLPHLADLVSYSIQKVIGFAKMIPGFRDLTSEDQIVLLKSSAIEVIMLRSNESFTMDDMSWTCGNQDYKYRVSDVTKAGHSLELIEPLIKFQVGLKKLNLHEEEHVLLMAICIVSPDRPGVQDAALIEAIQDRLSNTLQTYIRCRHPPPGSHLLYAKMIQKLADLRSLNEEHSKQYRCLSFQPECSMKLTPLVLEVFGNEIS
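The screen uses fluorescence polarization to detect compounds that interfere with recruitment of the SRC2-3 coactivator peptide to VDR; plates are read after 2 h at room temperature.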
An asterisk follows results filed as active; ? = inconclusive; [ ] = dose if it differs, or a comment. % is set by controls: 0 for no effect and ±100 for the full control effect; potency is the fitted concentration of half-maximal effect.

SMILES | VDR inhibitor
CO/N=C(\CS(=O)(=O)Cc1ccc(OC)cc1)c1ccc(Cl)cc1 | -1%
CCOC(=O)C1=C(C)NC2=C(C(=O)CCC2)C1c1cn(Cc2ccc(Cl)cc2Cl)nc1-c1ccccc1 (centres undefined) | 7%
CCN(CC)CCNC(=O)C(=O)Nc1cc2c3c(c1)CCC(=O)N3CCC2 | 1%
Cc1cc(C)cc(Nc2nc3ccccc3n3cnnc23)c1 | 22%
Nc1ncnc2c1nc(Br)n2[C@@H]1O[C@@H]2COP(=O)(O)O[C@H]2[C@H]1O | -12%
Cc1cc(Cl)ccc1OCCCC(=O)NCCc1nnc2ccccn12 | 1%
CCCCn1c(N)c(N(CCOC)C(=O)c2cccc(-n3cnnn3)c2)c(=O)[nH]c1=O | 2%
Cc1noc(C)c1NC(=O)N(C)C[C@H]1Oc2ccc(NS(=O)(=O)c3cccs3)cc2C(=O)N([C@H](C)CO)C[C@@H]1C | -2%
Cc1cn([C@@H](CCCCNC(=O)OC(C)(C)C)C(=O)NCCCCCCCCCCC(=O)N2CCN(C(=O)OC(C)(C)C)CC2)nn1 | -4%
COc1ccc(Cc2n[nH]c(=S)n2C)cc1Br | -10%
Cc1cc(=O)nc2c3ccccc3n(CC(=O)NCCCN3CCCCC3C)n12 (centres undefined) | 16%
CCOc1ccc2oc(-c3ccccc3)c(C(=O)N3CCN(CCO)CC3)c2c1 | 8%
CCOC(=O)C(=O)NC(C)CCc1ccccc1 (centres undefined) | -2%
COc1ccccc1C(=O)NCC(=O)N/N=C/c1cc(Br)ccc1OC(=O)/C=C\c1ccco1 | 0%
CCCCN(C)C(=O)c1cn(CC)c2nc(C)ccc2c1=O | 11%
CC1OC(Nc2cccc3ccccc23)C(O)C(O)C1O (centres undefined) | 8%
Brc1ccc(C[n+]2ccccc2)cc1 | -11%
O=C1COc2ccc(-c3cc(-c4ccc(Cl)cc4)c4c(n3)-c3ccccc3OC4)cc2N1 | 12%
Cc1cccc(-c2noc(CN(C(=O)CCc3ccccc3)C(C)C)n2)c1 | 0%
CN(C)c1ccc(/C=N/NC(=O)c2ccc(CN3CCOCC3)cc2)cc1Br | -6%
COc1ccc(CCNC(=S)Nc2cc(C)cc(C)c2)cc1 | 1%
C=C(CC[C@@H](O)C(C)(C)O)[C@H]1CC[C@]2(C)[C@@H]1CCC1[C@@]3(C)CC[C@H](O)C(C)(C)C3CC[C@]12C (some centres undefined) | -4%
O=C(N/N=C/c1cccc(F)c1)c1csc2c1CCCC2 | 1%
CS(=O)(=O)N1CCC(c2noc(-c3ccc(C(F)(F)F)cc3)n2)CC1 | -6%

3 of the entries above in order of their number in VDR inhibitor, highest first:
SMILES | VDR inhibitor
Cc1noc(C)c1NC(=O)N(C)C[C@H]1Oc2ccc(NS(=O)(=O)c3cccs3)cc2C(=O)N([C@H](C)CO)C[C@@H]1C | -2%
Cc1cn([C@@H](CCCCNC(=O)OC(C)(C)C)C(=O)NCCCCCCCCCCC(=O)N2CCN(C(=O)OC(C)(C)C)CC2)nn1 | -4%
Brc1ccc(C[n+]2ccccc2)cc1 | -11%

The listing continues:
SMILES | VDR inhibitor
Cc1cc(C)cc(Oc2coc3cc(OC(=O)c4cccs4)ccc3c2=O)c1 | 7%
CC1CCN(S(=O)(=O)c2ccc3c(ccc(=O)n3CC(=O)NCc3ccccc3Cl)c2)CC1 | 2%
O=C(NCCc1cn2ccsc2n1)c1cccs1 | 3%
CCN(CC)C(=O)Cn1cc(S(=O)(=O)CC(=O)Nc2cc(C)on2)c2ccccc21 | -11%
Cc1noc(C)c1-c1ccc2ncnc(Nc3ccccc3)c2c1 | -9%
CCCS(=O)(=O)NCc1ccc2c(c1)cc(C)n2C | -4%
N=c1c(S(=O)(=O)c2ccc(Br)cc2)cc2c(=O)n3ccccc3nc2n1C1CCCC1 | -9%
Cc1ccc(N(C)S(=O)(=O)c2c(-c3ccccc3)csc2C(=O)O)cc1 | -9%
O=C(NCCc1csc(-c2ccc(F)cc2)n1)c1c(F)cccc1Cl | 15%
O=C(c1ccc(Cl)cc1)N1CCC(c2nc3ccccc3o2)CC1 | -3%
Cc1ccc(S(=O)(=O)N/N=C/C(C)(C)CO)cc1 | 25%
CC(C)C(=O)N1CCN(c2ccc(NC(=O)c3ccc4c(c3)OCCO4)cc2Cl)CC1 | -19%
O=C(OCc1ccccc1)/C(=C/c1ccccc1Cl)NC(=O)c1ccco1 | -10%
CN(Cc1nc(-c2cccnc2)no1)S(=O)(=O)c1ccccc1 | -1%
Cc1cc(C(=O)NCC2COc3ccccc3O2)c2ccccc2n1 (centres undefined) | -6%
COc1ccc(-c2nc(CN3CCC(C(=O)NC4CCCC4)CC3)c(C)o2)cc1OC | 5%
CN(C)c1ccc(/C=[N+](\[O-])C(C)(C)/C=N/O)cc1 | 1%
CCCCC(CCCCl)C(=O)Nc1ccccc1 (centres undefined) | -25%
Cc1ccc(/C=C/c2onc(C)c2S(=O)(=O)N2CCC(C(=O)N3CCN(c4ccccc4F)CC3)CC2)cc1 | 15%
COc1ccc(OC)c(NC(=O)c2cc3c(n(-c4ccc(Cl)cc4)c2=O)CC(C)(C)CC3=O)c1 | -1%
N#Cc1ccc(OCC(=O)NNC(=S)NC(=O)C2CC2)cc1 | -12%
FC(F)(F)c1cccc(N2CCN(C(=S)NC3CCCC3)CC2)c1 | -25%
Cc1ccc2c(=O)cc(C(=O)Nc3ccc(S(=O)(=O)N4CCCCC4)cc3)oc2c1C | 9%
COc1ccc(-c2cc(C(=O)Nc3cccc(O)c3)no2)cc1 | -9%
COc1ccc(NC(=O)C2=C(C)Nc3c(C(=O)Nc4ccc(C)cc4)cnn3C2c2cccc(Cl)c2)cc1 (centres undefined) | -3%
C[C@@H]1CN([C@@H](C)CO)C(=O)c2cc(NC(=O)Nc3ccccc3)ccc2O[C@H]1CN(C)C(=O)Nc1cccc2ccccc12 | -12%
Fc1ccc(F)c(Nc2c3c(nc4ccc(Cl)cc24)CCC3)c1 | -28%
Cc1ccc2c(CC(=O)Nc3nc(C)cs3)coc2c1 | 9%
Cc1nn2cc(-c3ccccc3)nc2s1 | 1%
COc1cccc(C(=O)Oc2cc(C)[nH]c(=O)c2[N+](=O)[O-])c1OC | 5%
CC12CCC(C(=O)O)(c3nc(C#N)c(C#N)nc31)C2(C)C (centres undefined) | 2%
Cc1nnc(NC(=O)c2ccc(S(=O)(=O)N3CCCCC3)cc2)s1 | -14%
COc1cccc(NC(=O)c2oc3ccccc3c2NC(=O)COc2ccccc2C)c1 | 13%
CC12CCCCN1CCCc1c2[nH]c2ccccc12 (centres undefined) | -9%
Cc1ccc(S(=O)(=O)N2CCC(C(=O)OCC(=O)N3CCCC3=O)CC2)cc1C | -11%
CCOC(=O)c1[nH]c2ccc(OC)cc2c1NC(=O)CCN1CCC(C)CC1 | -9%
CCCN1C(C(=O)c2ccccc2)=C(OC(=O)C(C)(C)C)c2ccccc2S1(=O)=O | 10%
CCc1cc2c(COC(=O)c3cc(S(=O)(=O)N4CCOCC4)ccc3F)cc(=O)oc2cc1O | 3%
COCCCN1CC(=O)N2C(c3cccc(OC)c3OC)c3[nH]c4ccccc4c3C[C@H]2C1=O (some centres undefined) | 2%
C=C[C@@H]1c2cc(C)ccc2N(S(=O)(=O)c2ccc(C)cc2)[C@H](c2ccccc2C(F)(F)F)C1(C#N)C#N | -7%
COc1ccc(N=Nc2nc(-c3ccccc3)c(-c3ccccc3)[nH]2)cc1 | -6%
COc1ccc(-c2cn3c(n2)sc2cc(C(=O)NCCCc4ccccc4)ccc23)cc1 | 3%
CCOc1ccc(S(=O)(=O)N2CCCC(C(=O)NCc3ccccn3)C2)cc1Cl (centres undefined) | -8%
Cc1cc(=O)oc2c(C)c(OC3CCCCC3=O)ccc12 (centres undefined) | -10%
CCOC(=O)c1c(C)[nH]c(C)c1S(=O)(=O)N1CCCC(C(=O)N2CCN(c3cccc(C)c3C)CC2)C1 (centres undefined) | 12%
O=C(NCc1ccccc1F)c1cccc(S(=O)(=O)N2CCCCCC2)c1 | 11%
Nc1nnc(SCC(=O)OCC(=O)Nc2ccccc2F)s1 | 13%
Cc1c2cnn(CC(=O)Nc3c(F)c(F)cc(F)c3F)c(=O)c2c(C)n1Cc1ccccc1F | 17%
CSc1nc2c(c(=O)[nH]1)C(c1ccc(F)cc1)CC(=O)N2 (centres undefined) | -13%
O=C(NCc1nnc(SCC(=O)N2CCCC2)o1)c1ccco1 | -3%
COc1ccc(OC)c(NC(=O)c2ccno2)c1 | -6%
COC(=O)c1cc2sc(Cl)cc2n1CC(=O)Nc1cc(C)cc(C)c1 | -4%
COc1cc(C(=O)Nc2nonc2-c2ccc(C)c(C)c2)cc(OC)c1OC | 14%
CCOc1ccc(S(=O)(=O)N2CCN(C)CC2)cc1NC(=O)c1ccccc1F | -7%
CC(C)(C)c1ccc(N2C(=O)CC(C/C=C/c3ccccc3)C2=O)cc1 (centres undefined) | -20%
Cc1cc(=O)cc(C)n1-c1ccccc1Br | 2%

Next records follow:
SMILES | VDR inhibitor
Cc1nc2c(nnn2Cc2c(Cl)cccc2Cl)c(=O)[nH]1 | -6%
Cc1cc(C)nc(NC(=O)c2cccs2)n1 | 30%[activator]
CCOc1cc(C2NC(=O)c3ccccc3O2)ccc1OC (centres undefined) | -5%
COc1ccc(Cl)cc1NC(=O)C/C(C)=N/NC(=O)c1ccccc1[N+](=O)[O-] | 5%
CC(=O)N1CCc2ccc(S(=O)(=O)N3CC(C)OC(C)C3)cc21 (centres undefined) | -16%
CCn1c2ccccc2c2cc(CN3CCN(Cc4ccc(Cl)cc4)CC3)ccc21 | 2%
Cc1nnc(SCCC#N)n(CCC#N)c1=O | 12%
COc1ccc(-n2c(=S)[nH]c3sc(-c4ccccc4)cc3c2=O)c(OC)c1 | -7%

Continued (7 carried over from the part before).
SMILES | VDR inhibitor
Cc1cc(C)nc(NC(=O)c2cccs2)n1 | 30%[activator]
CCOc1cc(C2NC(=O)c3ccccc3O2)ccc1OC (centres undefined) | -5%
COc1ccc(Cl)cc1NC(=O)C/C(C)=N/NC(=O)c1ccccc1[N+](=O)[O-] | 5%
CC(=O)N1CCc2ccc(S(=O)(=O)N3CC(C)OC(C)C3)cc21 (centres undefined) | -16%
CCn1c2ccccc2c2cc(CN3CCN(Cc4ccc(Cl)cc4)CC3)ccc21 | 2%
Cc1nnc(SCCC#N)n(CCC#N)c1=O | 12%
COc1ccc(-n2c(=S)[nH]c3sc(-c4ccccc4)cc3c2=O)c(OC)c1 | -7%
CN(C(=O)c1cccc(NC(=O)C2CCCN(C(=O)OC(C)(C)C)C2)c1)C1CCCC1 (centres undefined) | 5%
CCOc1ccc(NC(=S)N2CCC(c3nc4ccccc4[nH]3)CC2)cc1 | -10%
CC(C)NC(=O)N1CCC2(CC1)CCN(C(=O)c1cc(C(F)(F)F)cc(C(F)(F)F)c1)CC2 | 5%
COc1ccccc1N1CCN(C2CCCCC2NS(=O)(=O)c2ccccc2)CC1 (centres undefined) | -10%
CN(C)c1ccc2c(c1[N+](=O)[O-])Cc1ccccc1-2 | 1%
COc1cccc(C2NC(=O)NC(C)=C2C(=O)OCC2CCCO2)c1 (centres undefined) | 11%
O=C(c1ccc2ncsc2c1)N1CCN(c2cccc(C(F)(F)F)c2)CC1 | 5%
CC1(C)Cc2c(cnn2-c2ccc(F)cc2)C(NC(=O)CCc2ccncc2)C1 (centres undefined) | -18%
O=C(CSc1nnc(CNC(=O)c2c(F)cccc2F)o1)Nc1ccc2c(c1)OCCO2 | -14%
CC1(C)Cc2c(sc(NC(=O)c3ccc4ncsc4c3)c2C(N)=O)C(C)(C)N1 | 1%
CCOc1ccc(-n2c(SCC(=O)Nc3ccc(F)cc3)nc3c([nH]c4ccccc43)c2=O)cc1 | 0%
COc1ccc(NC(=O)CSc2nc(=O)n(CCN3CCOCC3)c3c2CCC3)c(OC)c1 | 1%
COc1ccc(S(=O)(=O)NC2CCCCCC2)cc1C(N)=O | -8%
COCC(C)n1c(C)cc(C(=O)Cn2c(=O)oc3ccccc32)c1C (centres undefined) | -11%
O=C(NCc1ccco1)c1ccc2c(c1)N(Cc1ccc(Cl)cc1)C(=O)c1ccccc1S2 | 0%
CC1Cc2ccccc2N1C(=O)COC(=O)c1ccc(Cl)nc1 (centres undefined) | -16%
Cc1ccsc1/C=N/Nc1ccc(Cl)nn1 | -9%
Cc1cc(=O)oc2cc(OCC3CC(c4ccc(N(C)C)cc4)=NO3)ccc12 (centres undefined) | 4%
Cc1c(C(=O)N2CCCCC2)sc(N)c1C#N | 2%
CSc1nc(-c2ccccc2)ccc1C(N)=O | 7%
COc1ccc(CNCc2ccco2)cc1OCc1ccccc1 | 8%
O=C(CSc1nnc(NC(=O)c2ccco2)s1)Nc1ccccc1Br | -5%
CCCC(=O)C1=C(c2ccccc2)C(C#N)(C#N)C(C#N)=C1N | ?
CCc1nnc(N/N=C/c2c(Cl)cccc2Cl)n1N | -2%
Cc1ccc2nc(-c3ccccc3)cc(C(=O)NCCCn3ccnc3)c2c1 | -1%
Cn1c(=O)n(C)c2cc(NS(=O)(=O)c3ccccc3)ccc21 | 10%
O=C(NN=C1c2ccccc2-c2ccccc21)c1ccccc1Br | 7%
N#CCC(=O)NN=C1CCCCCCCCCCC1 | -22%
O=C(Cc1ccc(-c2ccccc2)cc1)NCCS(=O)(=O)N1CCN(c2ccccc2F)CC1 | 4%
CC(C)n1nc(C(=O)Oc2ccc(Cl)cc2)c2ccccc2c1=O | -7%
COc1nnc(-c2ccc(C)cc2)c2ccccc12 | 1%
CC(=O)Nc1c(-c2ccc3ccccc3c2)nc2ccccn12 | -12%
O=C(COC(=O)c1ccccn1)Nc1c(Cl)cccc1Cl | -1%
COc1ccccc1CC1S/C(=N/N=C/c2ccco2)NC1=O (centres undefined) | -3%

High-throughput results as filed in PubChem BioAssay.

This is a subset; count on the stated rates, not on these rows.
